# VDR inhibitor – inhibitors of human vitamin D receptor; VDR-SRC2-3 peptide fluorescence polarization, 2 h; Potency, µM, without a hit: max response, negative = inhibition, most hits filed as inhibitors; 400,000 tested, 0.93% active; AID 504847; active = well fitted inhibition curve with a large enough effect; inconclusive = small, poorly fitted or top-dose-only effect, or another doubt; inactive = no such curve, though single readings can be large or run the other way; note: series mostly up to about 120 µM
# Target sequence (P11473 whole entry, looked up): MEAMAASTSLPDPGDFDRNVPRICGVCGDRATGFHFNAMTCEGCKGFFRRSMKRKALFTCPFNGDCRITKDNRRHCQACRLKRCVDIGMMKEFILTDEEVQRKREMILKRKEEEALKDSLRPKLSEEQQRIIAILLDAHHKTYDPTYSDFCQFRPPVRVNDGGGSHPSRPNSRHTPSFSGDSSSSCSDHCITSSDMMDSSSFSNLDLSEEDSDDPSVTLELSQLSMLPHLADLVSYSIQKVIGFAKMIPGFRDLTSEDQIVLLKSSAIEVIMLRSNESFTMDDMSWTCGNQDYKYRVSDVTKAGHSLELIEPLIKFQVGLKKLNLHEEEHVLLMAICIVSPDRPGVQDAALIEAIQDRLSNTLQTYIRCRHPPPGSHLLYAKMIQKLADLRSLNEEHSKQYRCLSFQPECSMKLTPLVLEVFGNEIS
#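 Fluorescence polarization assay of small-molecule disruption of VDR binding to coregulator peptide SRC2-3. Compounds and controls pin-transferred, then read after 2 h incubation at ambient room temperature.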
# The depositor's hits bear a star; ? = inconclusive; & = joins results of further samples; [ ] = another dose, or the depositor's remark. % is set by controls: 0 for no effect and ±100 for the full control effect; potency is the fitted concentration of half-maximal effect.
SMILES,VDR inhibitor
Cc1cc2nc(SC(C)C(=O)O)[nH]c2cc1C (centres undefined),-13%
CC(=O)Nc1ccc(NC(=O)c2ccccc2Sc2ccc([N+](=O)[O-])cc2Cl)cc1,-1%
CC(=O)N1CCN(c2ccc(NC(=O)c3ccccc3Cl)cc2)CC1,-13%
COc1ccc(Nc2nc3ccccc3nc2NS(=O)(=O)c2cccs2)cc1,-11%
CC(C)c1ccccc1OCCNC(=S)NC(=O)c1cccnc1,0%
CCOc1cc(/C=C(\C#N)C(=O)NCC2CCCO2)ccc1O (centres undefined),-18%&-4%
CC[C@@H](C)[C@@H](CO[C@@H](Cc1ccccc1)C(=O)N[C@@H](CCS(C)(=O)=O)C(=O)OC(C)C)NC[C@@H](N)CS,10µM*
O=C(NCCN1CCOCC1)c1noc2c1CCc1ccccc1-2,-8%
Cn1cc([N+](=O)[O-])c(C(=O)Nc2ccc(-c3nc4ccccc4o3)cc2)n1,4%
NC(=O)c1ccc(NC(=O)c2ccc3c(c2)OCO3)cc1,-12%
C=CCn1c(-c2cccc(S(=O)(=O)N3CCOCC3)c2)n[nH]c1=S,-12%
COc1cccc(CNC(=O)COC(=O)C23CC4CC(CC(Cl)(C4)C2)C3)c1,8%
CCN(CC)CCNC(=O)Cn1cnc2sc(C)c(S(=O)(=O)N3CCN(c4ccccc4OC)CC3)c2c1=O,10%&-12%
CC(=O)c1c(C(C)=O)c(C)n(-c2ccc(N)cc2)c1C,-8%
O=C1Nc2ccccc2/C1=N/N=C/c1cccc(O)c1,-14%
CC1Sc2ccc(S(=O)(=O)N3CCC(C(N)=O)CC3)cc2NC1=O (centres undefined),-4%
CCOc1ccc(S(=O)(=O)NCc2nc3cccnc3n2Cc2ccccc2OC)cc1,15%
CCOC(=O)c1c(SCc2ccccc2)n[nH]c1N,-14%
O=c1oc2ccccc2n1Cc1cccc(C(F)(F)F)c1,-4%
O=C(Nc1ccccc1Cl)C1C(c2ccccc2)C1(Cl)Cl (centres undefined),-10%
Cc1ccc(NC(=O)C2CC(=O)N(c3ccccc3Cl)C2)cc1S(=O)(=O)N1CCOCC1 (centres undefined),2%
CSCCC(NC(=O)c1ccc(Cl)cc1Cl)C(=O)NCc1ccccn1 (centres undefined),-2%
NC(=O)CSc1nnc(-c2ccccn2)n1Cc1ccco1,6%
S=C(c1ccccc1)N1CCSCC1,-5%
CCOC(=O)CN1C(=O)N(c2ccccc2OC)S(=O)(=O)c2ccccc21,2%
O=S(=O)(NCc1ccccc1)NCc1ccccc1,-2%
c1ccc(CNC2CC3CCC2C3)cc1 (centres undefined),7%
Cc1ccc(N)cc1CN1CCCC1=O,-5%
O=C(c1cccnc1)N1CCN(S(=O)(=O)c2ccc3ccccc3c2)CC1,-21%
Cn1c(=O)n(CCCc2ccccc2)c(=O)c2c1nc1n2CCN1c1ccccc1,3%

# Random excerpt: 3 records from the list, in no set order.
SMILES,VDR inhibitor
O=C(Nc1ccccc1Cl)C1C(c2ccccc2)C1(Cl)Cl (centres undefined),-10%
O=c1oc2ccccc2n1Cc1cccc(C(F)(F)F)c1,-4%
CCOC(=O)CN1C(=O)N(c2ccccc2OC)S(=O)(=O)c2ccccc21,2%

# Next part.
SMILES,VDR inhibitor
CCc1ccc(OCC(=O)NC(=S)Nc2ccc(C(C)=O)cc2)c(Br)c1,-21%
O=C(CNC(=O)c1ccco1)Nc1cccc(Cl)c1,7%
COC(=O)N1CC=CC1(C)C(=O)NCc1cc(F)cc(C(F)(F)F)c1 (centres undefined),-8%
CCOc1ccc(S(=O)(=O)n2cc(F)c(=O)[nH]c2=O)cc1[N+](=O)[O-],5%
Cc1ccc(SCCC(=O)NNC(=O)c2ccccc2F)cc1,17%
CCC(C)(C)NC(=O)C1CCN(S(=O)(=O)c2cccs2)CC1,1%
Cc1ccc(SCc2cc(=O)[nH]c(/N=C(\N)Nc3ccc(C)c(C)c3)n2)cc1,-12%
CCCCN(C(=O)/C=C/c1ccc(OC)cc1)C1CCS(=O)(=O)C1 (centres undefined),-18%
Clc1ccc(NC2=NCCC2)cc1Cl,1%
O=C(CNC(=O)c1ccccc1)NCC(=O)OCC(=O)c1ccccc1,-12%
CCOc1ccc(-n2c(COc3ccccc3)nnc2SCC(N)=O)cc1,2%
c1ccc(C2[C@H]3CN(CC4CCCCC4)[C@H](c4ccccc4)C34CC2(c2cccnc2)C4)cc1 (some centres undefined),-5%
c1ccc(CCc2cn(C[C@H]3CC[C@@H]([C@@H]4CC[C@H](Cn5cc(CCc6ccccc6)nn5)O4)O3)nn2)cc1,?
CCO[C@@H]1OC(C(=O)N2CCCCCCC2)=C[C@H](c2ccc(C(F)(F)F)cc2)[C@H]1CCCO,-20%
CCOC(=O)N1CCN(C(=O)CNC(=O)c2ccc(Br)cc2)CC1,-11%

# In another format: entries from further up.
VDR inhibitor | Compound
1% | Clc1ccc(NC2=NCCC2)cc1Cl
-12% | O=C(CNC(=O)c1ccccc1)NCC(=O)OCC(=O)c1ccccc1
2% | CCOc1ccc(-n2c(COc3ccccc3)nnc2SCC(N)=O)cc1
-5% | c1ccc(C2[C@H]3CN(CC4CCCCC4)[C@H](c4ccccc4)C34CC2(c2cccnc2)C4)cc1 (some centres undefined)
? | c1ccc(CCc2cn(C[C@H]3CC[C@@H]([C@@H]4CC[C@H](Cn5cc(CCc6ccccc6)nn5)O4)O3)nn2)cc1
-20% | CCO[C@@H]1OC(C(=O)N2CCCCCCC2)=C[C@H](c2ccc(C(F)(F)F)cc2)[C@H]1CCCO
-11% | CCOC(=O)N1CCN(C(=O)CNC(=O)c2ccc(Br)cc2)CC1

# Further structures follow.
SMILES,VDR inhibitor
CC(=O)NC(Cc1ccccc1)C(C)=O (centres undefined),6%
CCOC(=O)C1CCCN(CC(=O)Nc2cccc(C(C)=O)c2)C1 (centres undefined),-12%
O=C(N/N=C/c1cccc(OC(=O)c2ccccc2Cl)c1)c1cccnc1,0%
CCOc1cccc(/C=C/c2cc(C(=O)O)c3ccccc3n2)c1OC,51%[activator]
CCCCn1c(N)c(N(CCC(C)C)C(=O)COC(=O)c2ccco2)c(=O)[nH]c1=O,-13%
COc1ccc(-c2nn3c(-c4cc(C)[nH]n4)nnc3s2)cc1,-19%
CC(=O)Nc1ccc2nc(-c3cccnc3)[nH]c2c1,1%
CCc1nn(CC(=O)NCc2ccc(OC)cc2OC)c(=O)c2cc3c(OC)cccc3n12,4%
Cc1cc(C)nc(/N=C2\NC(=O)CC(C(=O)O)N2c2ccc(Oc3ccccc3)cc2)n1 (centres undefined),9%
CCOC(=O)C/C(C)=N/NC(=O)c1cccs1,-5%
COc1cccc(NC(=O)C(=O)NCc2ccncc2)c1,-14%
CC1CCN(c2nnc(N)s2)CC1,-2%
O=[N+]([O-])c1ccc(-c2cnc[nH]2)cc1,-14%
CC(C)CC(NC(=O)OC(C)(C)C)c1cn([C@@H](Cc2cc3ccccc3[nH]2)C(=O)N2CCN(C(=O)OC(C)(C)C)CC2)nn1 (some centres undefined),-8%
COC(=O)CCC(=O)NN1C(=O)c2ccccc2C1=O,-23%
COc1ccc(N2CCN(c3oc(COc4ccc(Cl)cc4Cl)nc3C#N)CC2)cc1,3%
COc1ccc(Cl)cc1NC(=O)CN(C)C(=O)Cc1n[nH]c(=O)c2ccccc12,-2%
CCOC(=O)CNC(=O)CSc1nc2ncc(Br)cc2[nH]1,3%
CCCC1CCC(c2ccc(C(N)=O)cc2)CC1 (centres undefined),14%
O=C(CCN1C(=O)c2ccccc2C1=O)NC(=S)Nc1ccccc1,-16%
COCCN(CC(=O)Nc1ccccc1C(F)(F)F)C(=O)/C=C/c1ccc2ccccc2n1,11%
CCN(CC)C(=O)CCc1nnc(CCc2c[nH]c3ccccc23)o1,1%
COc1ccc2c(c1)c1nc3ccccc3nc1n2Cc1ccc(OC)c(OC)c1,-19%
Cc1ccc(C(=O)NCc2ccccc2)cc1Br,-10%
Cc1ccc(NC(=O)CCn2nc(C)c3c(C)n(-c4ccccc4)nc3c2=O)cc1Cl,20%
Cc1cc(F)ccc1NC(=S)NC1CCCC1,7%
O=C(O)c1c(-c2ccc(Cl)cc2)cn2ccccc12,12%
Cc1ccc(S(=O)(=O)NNC(=O)Nc2ccc(Cl)c(Cl)c2)cc1,-2%
COc1ccccc1NC(=O)c1cc(S(=O)(=O)N2CCOCC2)ccc1Cl,-1%
CC(C)NC(=O)CCSc1nc(-c2ccc3c(c2)OCO3)cc(C(F)(F)F)n1,2%
COc1cc(CNCc2ccncc2)ccc1OCC(N)=O,12%
O=C(CCCn1c(=O)[nH]c2cc(Cl)ccc2c1=O)NCCCN1CCCC1,19%
O=C(OCc1nnc(-c2ccccc2)o1)c1ccc(Cl)cc1,-13%
COc1ccccc1C(c1nnnn1C(C)(C)C)N1CCCCCC1 (centres undefined),?
COc1ccc(-c2cc(=NC(CC(C)C)C(=O)O)c3cc(C)ccc3o2)cc1 (centres undefined),1%
O=C(CSc1nccc(-c2cccs2)n1)Nc1cccc(Cl)c1Cl,6%
Cc1ccc(N2C(=O)C(CC(=O)Nc3ccc(F)cc3)N(Cc3ccc4c(c3)OCO4)C2=O)cc1 (centres undefined),-4%
Cc1sc2nc(SCc3ccc(C(=O)O)cc3)n(Cc3ccco3)c(=O)c2c1C,89µM*
COCCCNC(=O)CCn1c(=O)c2ccccc2n(CC(=O)Nc2cc(Cl)ccc2C)c1=O,-12%
Cc1ccc(C)c(N2CCN(C(=O)C(C)n3c(C)c4cnn(-c5ccccc5)c(=O)c4c3C)CC2)c1 (centres undefined),20%
CCNc1nc(NCC)nc(N/N=C/c2ccc(OC)cc2)n1,-5%
CCOc1ccc(/C=C/c2c([N+](=O)[O-])c(=O)n(C)c(=O)n2C)cc1,-5%
O=C(c1ccccc1Oc1ccccc1)N1CCN(c2ccc(F)cc2)CC1,-14%
CCn1nc(NC(=O)C2CCCO2)c2cc3cccc(C)c3nc21 (centres undefined),-4%
CC(=O)Nc1ccc(C(=O)CSc2nnnn2C(C)C)cc1,6%
Cc1ccc(SCc2[nH]nc3c2C(c2ccc(C)o2)C(C#N)=C(N)O3)cc1 (centres undefined),-28%
Cc1ccccc1Cn1nc(C)c(NC(=O)c2sc3ccccc3c2Cl)c1C,-15%
CN(C)c1nc(N)nc(CSc2n[nH]c(-c3ccccc3)n2)n1,2%
CCCCn1c(N)c(N(Cc2ccccc2OC)C(=O)c2cc(CC)c(C)s2)c(=O)[nH]c1=O,-8%
O=C(NCc1cccnc1)C12CC3CC(CC(C3)C1)C2,15%
O=C(CSc1nnnn1-c1ccccc1)NCC1(N2CCOCC2)CCCCC1,7%
O=C1C(Cl)=C(N2CCN(c3ccccc3[N+](=O)[O-])CC2)C(=O)c2ccccc21,40µM*
Cc1cc(C)nc(SCc2ccc(C(=O)N/N=C/c3cccc(O)c3O)cc2)n1,-16%
CSc1ccc(C(=O)C2CCCN(C(=O)c3cc4cc(F)ccc4[nH]3)C2)cc1 (centres undefined),27%
C=CCOc1cccc(C(=O)N2CCCC(CNS(=O)(=O)c3cccs3)C2)c1 (centres undefined),-4%
COc1ccc(-c2cn3c(n2)sc2cc(C(=O)NCc4cccc(F)c4)ccc23)cc1,-1%
COC(=O)COc1ccc(/C=N/NC(=O)CN(c2ccccc2OC)S(=O)(=O)c2ccccc2)cc1,-6%
Cc1cc(C)n(-c2ccc([N+](=O)[O-])cc2)n1,8%
O=C(Oc1ccc(Cl)c2cccnc12)c1cccc([N+](=O)[O-])c1,-15%
COC(=O)c1cc(NCc2ccccc2F)ccc1N1CCOCC1,0%

# Marked active in VDR inhibitor, among the entries above:
SMILES,VDR inhibitor
CC[C@@H](C)[C@@H](CO[C@@H](Cc1ccccc1)C(=O)N[C@@H](CCS(C)(=O)=O)C(=O)OC(C)C)NC[C@@H](N)CS,10µM*
Cc1sc2nc(SCc3ccc(C(=O)O)cc3)n(Cc3ccco3)c(=O)c2c1C,89µM*
O=C1C(Cl)=C(N2CCN(c3ccccc3[N+](=O)[O-])CC2)C(=O)c2ccccc21,40µM*

# Later entries.
SMILES,VDR inhibitor
COc1ccc(-c2nnc(SCC(=O)NC3CCCCC3)n2N)cc1,?
CC1CCN(c2ccc(C(=O)Nc3nnc(C4CC4)s3)cc2[N+](=O)[O-])CC1,33%
COc1ccc(NC(=O)Cn2nnc(C(=O)NCc3ccccc3)c2N)cc1Cl,-5%
Cc1ccc(N2C(=O)N(Cc3cc(=O)n4ccccc4n3)c3ccccc3S2(=O)=O)cc1Cl,24%
Cc1cccc(NC(=O)CSc2nc(C)cc(C)c2C(=O)Nc2ccc(Cl)cc2)c1,15%
N/C(=N\OC(=O)Cc1ccc([N+](=O)[O-])cc1)c1ccc([N+](=O)[O-])cc1,-1%
CCC(CC)c1nn2c(N)c(/C=C3\C=Nc4ccccc43)c(=O)nc2s1,11%
COc1ccc(CCNC(=O)COc2ccc(-c3ccccc3)cc2)cc1OC,-16%
CN(/N=C/C=C/c1ccccc1)C1=NS(=O)(=O)c2ccccc21,-5%
O=C(C1CCCCC1)N1CCC(O)(c2ccc(Cl)cc2)CC1,-6%
CN(C)c1ccc(C(=O)OCC(=O)Nc2ccc(N3CCOCC3)cc2)cc1,-3%
COc1ccc(C(=O)N2CCCC(O)C2)cc1OC1CCN(C(C)C)CC1 (centres undefined),-13%
O=C(c1ccco1)N(Cc1cccc(Br)c1)C1CCS(=O)(=O)C1 (centres undefined),?
O=C(CN1CCN(c2ccccc2F)CC1)c1ccc(O)c(O)c1,52%[activator]
Cc1cc(C(F)(F)F)c2c(C)nn(-c3ccccc3)c2n1,-11%
COc1ccc(N=N/C(=C\O)C(=O)c2ccco2)cc1,-6%
CC1CCN(c2oc(-c3ccccc3Cl)nc2C#N)CC1,5%
COCCn1c(N)c(C(=O)NS(=O)(=O)c2ccc(C)cc2)c(=O)[nH]c1=O,0%
COc1ccc(S(=O)(=O)N(CC(=O)NC2CC3CCC2C3)c2ccccc2OC)cc1 (centres undefined),?

# This is a subset, so the mix of outcomes need not match the whole.
